BJeLR viability: kills HRASV12-expressing BJeLR cells. BJeLR (HRASV12) viability, CellTiter-Glo ATP luminescence, 48 h; reference of the scale not given here. inhibition, % (no concentration beside the values). 0.17% of 300,000 active;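 active = replicate mean above 50%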;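 note: 50 nL library stock added to about 25 µL; numbers are from one replicate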
PrP UTR inh: inhibition of PrP 5' UTR reporter expression. 0.35% of 340,000 active. cell-based PrP 5' UTR mRNA reporter, plate reader. inhibition, % (concentration not given with the values);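 active = every replicate at 50% or more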;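 note: 0 = median of the neutral control wells; tested in H4 reporter cells; numbers are from one replicate; inactives centre near -14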
RN4220 kill: S. aureus RN4220 growth inhibition; OD600, 16 h; inhibition, % (concentration not given with the values); 0.33% of 330,000 active; AID 1259311;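 active = z-score of -3 or lower and OD600 up to 0.18 on both plates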;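 note: plate controls were untreated cells for no effect and reference antibiotic for full effect; stock transfer was 100 nL into about 80 µL; one replicate is shown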
Mtb hypoxia rep: Mtb hypoxia fluorescent reporter inhibition. 0.1% of 300,000 active. AID 1159583. fluorescence inhibition, % (test concentration not listed). M. tuberculosis hypoxia-regulated fluorescent reporter, fluorescence;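 active = 35 to 45% if threefold the growth effect, above 45% if 1.5-fold the growth effect; inactive = the rest, general growth blockers included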;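 note: wells of about 50 µL received 100 nL stock; 0% = vehicle wells and 100% = reference inhibitor wells; whole bacteria with a GFP reporter of the hypoxia response; strong numbers were not always called active; many hits fall short of the cut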
ugtP null kill: compounds lethal to S. aureus RN4220 ugtP deletion mutant | OD600 growth, 16 h; some inactives read as strong as hits | growth inhibition, % (test concentration not listed) | 0.54% of 330,000 active | AID 1259309;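 active = z-score under -3 and OD600 up to 0.15 on both plates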;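 note: plate controls were untreated wells for no effect and antibiotic for full effect; wells of about 80 µL received 100 nL stock; the first replicate is given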
Autofluor counter: counter-screen for toxin protease inhibitors: compound fluorescence; compound autofluorescence counterscreen, microsphere flow cytometry; active compounds read high; fluorescence intensity (test concentration not listed); 3.1% of 360,000 active; AID 624483;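 active = at least 3 SD above the mean of all compounds, about 16000 in these data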;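 note: 100 nL of 1 mM stock went into each well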
Mtb hypoxia rep growth: also measured in Mtb hypoxia rep; calls as there; growth inhibition, %; measured here: M. tuberculosis growth (absorbance);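 0% = vehicle and 100% = reference antibiotic; read after six days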
* marks the source's active call; other numbers are inactive results; nt = no result given; & = joins results of further samples.

Results follow in this order: BJeLR viability, PrP UTR inh, RN4220 kill, Mtb hypoxia rep, Mtb hypoxia rep growth, ugtP null kill, Autofluor counter
Cc1c(NC(=O)COc2cccc(Br)c2)c(=O)n(-c2ccccc2)n1C
→ -4, 1, 5.5, 5, -5, 10, 2936
O=C(c1ccc(Cl)cc1)N1CCN(c2ccc(F)cc2)CC1
→ -2, -22, 3.0, nt, nt, 4, 7065
Cc1ccc(NC(=O)C2CCCN2C(=O)NC2CCCCC2)cc1F (stereo not given)
→ -1, 6, 0.5, -2, 3, 11, 4627
CC1(C)CC[C@]2(C(=O)O)[C@H](O)C[C@]3(C)C(=CCC4[C@@]5(C)C[C@H](O)[C@H](O)[C@@](C)(CO)C5CC[C@]43C)[C@@H]2C1 (stereo not given in full)
→ 6, -19, 27, nt, nt, 10, 4955
CC(C)C(=O)Nc1ccc(C(=O)CN2C(=O)NC3(CCOc4ccccc43)C2=O)cc1 (stereo not given)
→ nt, -11, 1.9, 2, 0, 7, 4473
NS(=O)(=O)c1ccc(CCNc2ncnc3sccc23)cc1
→ 12, -19, -0.1, 10, 7, -2, 4079
OC(CN1CCCCC1)Cn1c2ccccc2c2ccccc21 (stereo not given)
→ 2, 0, 1.4, 15, 8, -2, 3661
CCc1nc(OCCN(CC)CC)c2oc3ccccc3c2n1
→ -1, -22, 0.9, 6, 5, 2, 6107
CC1CCCC(C)N1c1nnc(NC(=O)Cn2c(=O)oc3ccccc32)s1 (stereo not given)
→ 0, 3, -0.5, -6, 3, -18, 4151
COc1ccc(-c2csc(NC(CO)c3nc4ccccc4n3CCCO)n2)cc1 (stereo not given)
→ 9, -25, 5.0, 17, 13, 1, 4205
CC1CCC[C@]2(O1)OC(CCO)CC(O)C2O (stereo not given in full)
→ nt, nt, 12&-3.2&3.2&4.0&5.4&4.1&4.0&3.2, -8&-3&17&12&22&10&8&16, 2&-5&10&5&9&9&8&16, 2&-5&5&1&4&3&-9&-8, nt
CCn1c(SCC(=O)NN=C/C=C\c2ccccc2[N+](=O)[O-])nc2ccccc21
→ nt, nt, 8.4, 2, 9, 5, nt
O=C(CNC(=O)c1cccs1)OCC(=O)c1cccs1
→ 12, -24, 5.4, 14, 10, 6, 2943
NNc1ccc2nnc(C(F)(F)C(F)(F)C(F)(F)F)n2n1
→ 4, -25, 0.7, 2, -1, 0, 2408
CC(C)CCN1CCN=C1N(C)C
→ nt, 0, 4.2, 9, 4, -5, 3994
O=C(COC(=O)c1cc(Br)ccc1O)NNC(=O)c1ccc(Cl)cc1
→ 3, -19, 1.8, -1, 2, 0, 5742
Cc1ccc(C(=O)COC(=O)c2cc(Cl)nc3ccccc23)cc1C
→ 3, -26, 2.0, 3, 9, 6, 5690
COc1cc(N)c(C(=O)c2nccc3cc(OC)c(OC)cc23)cc1OC
→ -1, -12, 4.6, 8, -3, 3, nt
CCOC(=O)C1CCCN(C(=O)c2cc3cc(F)ccc3[nH]2)C1 (stereo not given)
→ 2, -19, -0.4, 5, 6, -4, 3743
Cc1ccc(CN(C(=O)c2ccc(Cl)c([N+](=O)[O-])c2)C2CCS(=O)(=O)C2)o1 (stereo not given)
→ -9, -30, 1.6, 15, 6, 5, 6713
O=C(Cc1cccs1)NCCc1csc(-c2ccccc2)n1
→ 10, -18, 5.8, 5, 2, 0, 3419
COc1cc(/C=C/C(=O)O)ccc1OS(=O)(=O)c1c(C)c(C)cc(C)c1C
→ nt, -19, 22, 12, 10, 8, nt
CCN1C(=O)/C(=C/c2nc3ccccc3c(=O)[nH]2)c2ccccc21
→ nt, -5, 3.5, 0, 0, -8, 2524
CCSc1ccc(-c2nn(-c3ccccc3)cc2/C=C(/C#N)C(=O)NC)cc1
→ nt, -20, 2.9, 10, 4, 2, 8845
O=C1Cn2c(nc3ccccc32)N1c1cccc(C(F)(F)F)c1
→ 1, -19, -0.3, 7, 10, -2, 10689
O=[N+]([O-])c1ccc(Oc2cccc3cccnc23)c([N+](=O)[O-])c1
→ 7, -14, 5.5, 13, 6, 3, 4655
O=C(CN1C(=O)NC2(CCCCCCC2)C1=O)NCc1ccc2c(c1)OCO2
→ 3, -14, 0.8, nt, nt, 7, 4375
COc1ccc(CNC(=O)CCNS(=O)(=O)c2ccc3c(c2)oc(=O)n3C)cc1
→ -6, -1, 1.7, 4, -6, 9, 5459
COc1ccc(S(=O)(=O)NCCOc2ccc(Cl)cc2)cc1
→ nt, -9, 6.0, -4, -1, 1, 8364
C/C=C/c1ccc(OCC(=O)O)c(OC)c1
→ 9, -8, 6.0, -10, 7, 3, 3879

16 structures from above, ordered by count of non-hydrogen atoms, highest first:
Results follow in this order: BJeLR viability, PrP UTR inh, RN4220 kill, Mtb hypoxia rep, Mtb hypoxia rep growth, ugtP null kill, Autofluor counter
CC1(C)CC[C@]2(C(=O)O)[C@H](O)C[C@]3(C)C(=CCC4[C@@]5(C)C[C@H](O)[C@H](O)[C@@](C)(CO)C5CC[C@]43C)[C@@H]2C1 (stereo not given in full)
→ 6, -19, 27, nt, nt, 10, 4955
CC(C)C(=O)Nc1ccc(C(=O)CN2C(=O)NC3(CCOc4ccccc43)C2=O)cc1 (stereo not given)
→ nt, -11, 1.9, 2, 0, 7, 4473
COc1ccc(-c2csc(NC(CO)c3nc4ccccc4n3CCCO)n2)cc1 (stereo not given)
→ 9, -25, 5.0, 17, 13, 1, 4205
CCn1c(SCC(=O)NN=C/C=C\c2ccccc2[N+](=O)[O-])nc2ccccc21
→ nt, nt, 8.4, 2, 9, 5, nt
CCSc1ccc(-c2nn(-c3ccccc3)cc2/C=C(/C#N)C(=O)NC)cc1
→ nt, -20, 2.9, 10, 4, 2, 8845
COc1cc(N)c(C(=O)c2nccc3cc(OC)c(OC)cc23)cc1OC
→ -1, -12, 4.6, 8, -3, 3, nt
Cc1c(NC(=O)COc2cccc(Br)c2)c(=O)n(-c2ccccc2)n1C
→ -4, 1, 5.5, 5, -5, 10, 2936
O=C(COC(=O)c1cc(Br)ccc1O)NNC(=O)c1ccc(Cl)cc1
→ 3, -19, 1.8, -1, 2, 0, 5742
CCN1C(=O)/C(=C/c2nc3ccccc3c(=O)[nH]2)c2ccccc21
→ nt, -5, 3.5, 0, 0, -8, 2524
O=C1Cn2c(nc3ccccc32)N1c1cccc(C(F)(F)F)c1
→ 1, -19, -0.3, 7, 10, -2, 10689
NS(=O)(=O)c1ccc(CCNc2ncnc3sccc23)cc1
→ 12, -19, -0.1, 10, 7, -2, 4079
NNc1ccc2nnc(C(F)(F)C(F)(F)C(F)(F)F)n2n1
→ 4, -25, 0.7, 2, -1, 0, 2408
O=C(CNC(=O)c1cccs1)OCC(=O)c1cccs1
→ 12, -24, 5.4, 14, 10, 6, 2943
CC1CCC[C@]2(O1)OC(CCO)CC(O)C2O (stereo not given in full)
→ nt, nt, 12&-3.2&3.2&4.0&5.4&4.1&4.0&3.2, -8&-3&17&12&22&10&8&16, 2&-5&10&5&9&9&8&16, 2&-5&5&1&4&3&-9&-8, nt
C/C=C/c1ccc(OCC(=O)O)c(OC)c1
→ 9, -8, 6.0, -10, 7, 3, 3879
CC(C)CCN1CCN=C1N(C)C
→ nt, 0, 4.2, 9, 4, -5, 3994

More structures follow.
Results follow in this order: BJeLR viability, PrP UTR inh, RN4220 kill, Mtb hypoxia rep, Mtb hypoxia rep growth, ugtP null kill, Autofluor counter
CCCc1cc(=O)[nH]c(SCC(=O)N(Cc2ccccc2)C(C)C)n1
→ -8, -11, 5.0, nt, nt, -6, 4082
OCCNc1c2ccccc2nc2c(F)c(F)c(F)c(F)c12
→ 28, -49, 6.1, 9, 7, 8, 2622
Fc1ccc(Cn2nnnc2C(c2ccc(Cl)cc2)N2CC=C(c3ccc(F)cc3)CC2)cc1 (stereo not given)
→ 0, -5, -4.0, 16, -5, -2, 2624
CC(C)(O)c1cc2ccc(C#CCCN3C(=O)c4ccccc4C3=O)cc2c(=O)o1
→ nt, -7, 1.5, 1, 3, 1, 2784
CC(C)Cn1c(SCC(=O)N2CCc3ccccc3C2)nc(O)cc1=O
→ nt, -23, 12, 1, 7, 6, 3696
COc1ccc(OC)c(N2C(=O)NC(=O)/C(=C\c3ccc([N+](=O)[O-])s3)C2=O)c1
→ 3, -24, 0.5, -3, 5, 1, 4038
Cc1ccc(S(=O)(=O)NCc2ccccn2)cc1C
→ -8, -7, 2.2, 10, 1, 2, nt
